Mtb H37Rv – M. tuberculosis H37Rv growth inhibitors, H37Rv strain (AID 1626); M. tuberculosis H37Rv growth inhibition; higher % means a stronger effect; actives 0.95% (n = 220,000); inhibition, % at 10 µM, or IC50 in µM where a hit was titrated;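 active = confirmed in a dose series; inconclusive = inhibition above 80% but not taken into the dose series; inactive = below 80% or under 30% at every dose of the series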;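 also: bacteria incubated seven days before Alamar blue readout; 0% = bacteria only wells and 100% = bacteria with antibiotic wells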
YopH PTP inh – YopH (Yersinia) phosphatase inhibition. actives 0.16% (n = 140,000). fluorescence Ex485/Em525. inhibition, %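 (about 10 µM by stock and volumes)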;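 active = inhibition of 50% or more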;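 also: controls were vehicle for no effect and minimum signal wells for full effect; inactives centre near -20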
RecA intein inh – inhibitors of M. tuberculosis RecA intein splicing; P9WHJ3; cell-free RecA intein splicing, fluorescence; inhibition, %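 (about 9 µM by stock and volumes)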; actives 0.75% (n = 290,000); in the data active = inhibition above about 30%; inconclusive = no clear call, values can overlap the other calls;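 also: 0% = vehicle wells and 100% = reference inhibitor control wells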
Target sequence (P9WHJ3 whole entry, looked up): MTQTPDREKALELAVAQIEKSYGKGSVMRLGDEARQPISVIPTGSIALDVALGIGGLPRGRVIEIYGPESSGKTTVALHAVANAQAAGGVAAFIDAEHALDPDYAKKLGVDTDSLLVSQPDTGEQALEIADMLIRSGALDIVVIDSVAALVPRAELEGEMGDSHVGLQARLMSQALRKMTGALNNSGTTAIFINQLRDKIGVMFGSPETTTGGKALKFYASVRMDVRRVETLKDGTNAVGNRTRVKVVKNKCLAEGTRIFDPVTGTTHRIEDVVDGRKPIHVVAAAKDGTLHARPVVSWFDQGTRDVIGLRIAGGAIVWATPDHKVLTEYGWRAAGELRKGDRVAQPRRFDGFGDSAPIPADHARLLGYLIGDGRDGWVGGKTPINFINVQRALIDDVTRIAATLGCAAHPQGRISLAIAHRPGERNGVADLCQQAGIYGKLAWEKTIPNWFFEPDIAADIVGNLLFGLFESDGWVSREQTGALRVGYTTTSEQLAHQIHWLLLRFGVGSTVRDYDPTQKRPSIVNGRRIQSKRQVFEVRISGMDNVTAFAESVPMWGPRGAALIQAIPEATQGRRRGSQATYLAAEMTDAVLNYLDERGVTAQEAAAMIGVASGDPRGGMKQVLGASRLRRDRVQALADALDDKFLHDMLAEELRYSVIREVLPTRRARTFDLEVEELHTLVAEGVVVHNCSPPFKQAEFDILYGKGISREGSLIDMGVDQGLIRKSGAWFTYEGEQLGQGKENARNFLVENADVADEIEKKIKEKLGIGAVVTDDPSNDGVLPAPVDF
Arbovirus inh – arbovirus infection inhibition. inhibition, % at 10 µM. AID 1251. actives 0.37% (n = 200,000). arbovirus infection cell-based antiviral screen;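 active = inhibition from about 30%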;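 also: bluetongue infection of BSR cells; cell survival read as ATP light after 72 h; 0% = infected wells without compound and 100% = uninfected wells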
Mtb betalactam – beta-lactam sensitization of Mtb H37Rv; actives 0.27% (n = 330,000); AID 434955; inhibition, % at 25 µM; M. tuberculosis H37Rv growth with meropenem, percent inhibition; hits of this screen are not shown here;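 active = about 74% or more and at least 40 points above the plate without the antibiotic, then above 30% in a dose series; inconclusive = first-round hits that could not be retested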;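 also: growth measured after seven days incubation then overnight dye step; 0% = bacteria only wells and 100% = bacteria with antibiotic; twin plates without the antibiotic show which effects depend on it; some results filed as inactive read as strong as hits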
Arbovirus inh repeat – also measured in Arbovirus inh; calls as there; inhibition, %; measured here: 10K subset replicate screen; many hits read low in the repeat;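 first of two repeat runs on a subset; 0% = infected and 100% = uninfected wells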
* = called active by the depositor; ? = inconclusive; . = not tested or not shown.

SMILES	Mtb H37Rv	YopH PTP inh	RecA intein inh	Arbovirus inh	Mtb betalactam	others
O=C(NCc1cccnc1)C(=O)N/N=C/c1ccccc1[N+](=O)[O-]	3.5%	.	0.5	-3.5	-10.9
CCN(CC1CCCO1)C(=O)C1CCN(C2CCN(Cc3ccccc3C)CC2)CC1 (stereo not given)	.	.	-0.4	.	3.4
CCOc1oc(-c2ccc(OC)cc2)nc1C(F)(F)F	1.4%	-22.5	-2.2	-5.5	-4.4
C=CCNC(=O)C1CCN(c2cnccn2)CC1	-7.0%	.	-1.1	-2.6	1.9
CCCCSc1nc2c(cnn2-c2ccc(F)cc2)c(=O)[nH]1	9.3%	-30.3	3.1	13.4	-2.7	Arbovirus inh repeat=0.7
Cc1ccc(C(=O)OC2CCOC2=O)cc1NC(=O)c1ccco1 (stereo not given)	3.8%	-21.9	1.7	-5.2	-9.3
C=CCn1c(SCC(=O)Nc2ncc(Cc3ccc(C)c(Cl)c3)s2)nnc1-c1ccncc1	-3.9%	-19.8	0.4	2.9	-6.5
Cc1cc(Nc2ccccc2)n(-c2nc3ccccc3[nH]2)n1	<0.195µM*	-1.0	-3.3	-12.7	99.1
COc1ccc(CNc2nc3ccccc3n2Cc2ccccc2)cc1OC	-1.2%	-25.7	6.3	7.0	1.9
C/C=C\C=C/C(=O)Nc1cccc(C2=NOC3(C2)C[C@@H](C(N)=O)N(C(=O)/C=C/CC)C3)c1 (stereo not given in full)	-7.3%	.	0.9	.	-2.2
CCc1cccc(NC(=O)c2ccc(Cn3c(=O)[nH]c4ccsc4c3=O)cc2)c1	.	-11.5	-0.4	1.7	-0.9
CCOC(=O)/C=C1\SCC(=O)N1CC(=O)Nc1ccc2c(c1)CCC2	6.9%	-42.3	-0.5	7.2	4.0
O=c1[nH]c(/C=C/c2ccccc2F)nc2ccccc12	.	.	-2.0	.	7.0
COc1ccc(CC2(CCc3ccccn3)C(=O)NC(=O)N(c3ccccc3C)C2=O)cc1OC (stereo not given)	-3.1%	.	3.4	4.7	-1.1
CCOc1ccc(N(C(C)C(=O)N2CCCC2)S(C)(=O)=O)cc1 (stereo not given)	.	.	-1.6	.	-7.9
CCN(CC)CCNC(=O)C1CCC(=O)N1CCc1ccccc1 (stereo not given)	-8.2%	-39.9	-2.0	-3.3	1.4
COc1ccc(-n2c(=S)[nH]c3cc(C(=O)Nc4ccc(OC)c(OC)c4)ccc3c2=O)cc1	8.6%	12.8	4.3	3.3	-3.6
O=C(NNC(=O)c1cnccn1)c1cccc([N+](=O)[O-])c1	-4.7%	-31.1	1.3	0.3	28.9
O=C(CSc1nnnn1-c1cccnc1)Nc1ccc(OCc2ccccc2)cc1	4.6%	-17.7	1.8	-8.7	2.8
COc1ccc(-c2[nH]nc3c2C2(C(=O)N(CC(=O)O)c4ccccc42)C(C#N)=C(N)O3)cc1OC (stereo not given)	-2.6%	-17.3	18.4	3.0	-3.9

Of the compounds above, these contain a nitro group on carbon.
SMILES	Mtb H37Rv	YopH PTP inh	RecA intein inh	Arbovirus inh	Mtb betalactam	others
O=C(NCc1cccnc1)C(=O)N/N=C/c1ccccc1[N+](=O)[O-]	3.5%	.	0.5	-3.5	-10.9
O=C(NNC(=O)c1cnccn1)c1cccc([N+](=O)[O-])c1	-4.7%	-31.1	1.3	0.3	28.9

(next part)
SMILES	Mtb H37Rv	YopH PTP inh	RecA intein inh	Arbovirus inh	Mtb betalactam	others
COc1ccc(NC(=O)c2cc([N+](=O)[O-])ccc2N2CCNCC2)cc1	-3.9%	.	-1.3	7.1	4.2
CCc1ccc(NC(=O)CS(=O)CC(=O)Nc2ccc(F)cc2F)cc1 (stereo not given)	67.1%	-44.3	-0.4	-11.6	41.7
CCC(C)c1ccc(NC(=O)C2CC2)cc1 (stereo not given)	37.0%	-107.4	4.1	-4.0	59.4
O=C(NCc1ccccc1F)c1cccc(S(=O)(=O)NCc2ccccc2)c1	.	.	1.2	.	-2.5
CC(OC(=O)c1cccc(-n2cnnn2)c1)C(=O)Nc1ccc(F)cc1Cl (stereo not given)	.	.	-0.4	.	-3.0
COc1ccc(N(C)S(=O)(=O)c2c(C)[nH]c(=O)[nH]c2=O)c(OC)c1	-14.2%	-51.9	-0.3	0.3	1.7
O=C(c1cc(-c2ccc(Cl)cc2)n(-c2ccc(Cl)cc2)n1)N1CCOCC1	5.7%	-27.7	-3.5	-34.0	19.7
CN(C)c1ccc(C(=O)NNC(=O)c2ccc(Cl)cc2)cc1	-8.4%	.	0.4	.	-3.2
O=C(O)[C@H](Cc1ccccc1)NC(=O)N1CCC(Cc2ccccc2)CC1	-4.7%	.	2.2	.	-5.4
COc1ccc(CN2CCC(C(=O)Nc3ccc(Oc4cccnc4)cc3)CC2)c(C)c1C	.	.	0.7	.	99.5
CC1(C)N=C(c2ccccc2)[C@@H]2C(c3ccc([N+](=O)[O-])cc3)N21 (stereo not given in full)	9.1%	-23.2	-0.6	-4.9	-1.8
CC1CCCN(C(=S)NCc2ccccc2)C1 (stereo not given)	1.5%	-24.3	-2.7	-3.2	6.7
COc1ccc(CCNC(=O)CN(C2CCCCC2)S(C)(=O)=O)cc1	2.3%	34.1	-5.8	2.7	-8.7
CCCOc1ccc(C(=O)N2CCCC2)cc1OC	-8.0%	-5.7	.	2.2	-2.5
COc1ccc(NC(=O)Nc2cc(C)cc(C)c2)cn1	1.3%	.	3.3	.	2.4
CC(C)CNC(=S)N1CCC(C(=O)c2ccc(F)cc2)CC1	.	.	2.1	.	-9.2
O=C(Cn1nnc(-c2ccc(CN3CCOCC3)cc2)n1)NC1CCCCC1	2.3%	-13.9	1.4	3.9	4.0
O=c1c2ccccc2[nH]c(=S)n1CCc1ccccc1	7.9%	-10.5	4.6	3.5	7.4
O=C(N/N=C/c1c(O)ccc2ccccc12)c1[nH]ncc1Br	12.6%	-12.5	-1.9	-18.3	1.3
COc1cccc(N2CCN(C(=O)c3ccc4nc[nH]c4c3)CC2)c1	.	.	3.6	.	-4.4
O=C(Nc1ccc(F)cc1)c1ccc(S(=O)(=O)NCC2CCCO2)cc1 (stereo not given)	3.9%	-3.1	0.7	3.7	9.9
Oc1ccccc1Nc1nc(-c2ccccc2O)nc2ccccc12	.	.	1.8	.	5.0
CCN(CC)S(=O)(=O)c1ccc(NC(=O)CCNC(=O)c2ccccc2)cc1	.	.	0.7	.	-6.2
Cn1c(=O)c2c(nc(CN3CCN(C(=O)c4ccco4)CC3)n2CCCO)n(C)c1=O	.	.	-1.2	.	7.7
CCOc1cc(C(C#N)N2CCCCC2)ccc1OC (stereo not given)	-5.5%	-7.5	-1.5	5.9	-5.7
O=C(NCCN1CCN(Cc2ccc([N+](=O)[O-])cc2)CC1)C(=O)Nc1ccccc1	-3.2%	-31.9	-0.4	1.3	1.4
COC(=O)Cn1cc(/C=C2\C(=O)NC(=O)N(c3ccccc3)C2=O)c2ccccc21	.	.	-3.3	.	11.8
COc1ccc(CCNC(=O)CSc2nnc(-c3ccccc3)c3ccccc23)cc1OC	-4.0%	-12.9	7.8	3.9	5.1
Cc1c(C(=O)OC(C)C)[nH]c2c1C(=O)CC(C)(C)C2	9.7%	7.9	-0.1	-9.2	1.7
NNc1nc2c(Cl)ccc(Cl)c2s1	6.8%	-22.2	-1.9	29.0	44.6
COc1cccc(OC)c1NC(=O)c1nc2c(nnn2Cc2ccccc2Cl)c(=O)[nH]1	0.7%	.	-10.1	5.5	1.6
COC(=O)C1CCCCN1C(=O)c1ccc2oc(Cc3ccccc3)nc2c1 (stereo not given)	.	.	2.1	.	-3.9
N#Cc1ccc(Cn2c(=O)c(C#N)c3n(c2=O)CCC3)cc1	-10.5%	-43.7	.	0.8	-3.6
COc1ccc(OCC(=O)N2CCN(C(=O)c3cccs3)CC2)cc1	.	22.8	-1.1	-1.6	-7.0
CCOC(=O)N1CCN(c2nc(SC)nc3sc4c(c23)CC(C)(C)OC4)CC1	9.0%	.	-0.4	5.3	23.1	Arbovirus inh repeat=-0.7
O=C(O)CCC(=O)N1CCc2cc(S(=O)(=O)N3CCCCC3)ccc21	-7.2%	-27.4	-0.4	5.7	-10.4
COc1ccc(OC)c(NC(=O)CCc2nnc3ccc(NCc4ccco4)nn23)c1	.	.	0.4	.	0.1
COC(=O)c1ccc(Cn2cnc3c(cnn3-c3ccc(F)cc3)c2=O)o1	2.4%	1.2	1.2	11.2	-12.7
CCC(C)c1ccc(OCCn2ccnc2)cc1 (stereo not given)	?	15.4	4.8	2.1	86.1
Cc1c(Cl)cccc1NC(=O)CSC(C)c1nc2ccccc2c(=O)[nH]1 (stereo not given)	.	.	0.4	.	-11.1
Cc1cccc(NC(=S)NN2CCOCC2)c1C	1.6%	-22.4	6.4	4.9	-6.0
O=C(CCS(=O)(=O)Cc1ccccc1)Nc1ccc2c(c1)OCCO2	5.3%	.	4.1	-10.2	11.1
O=C(NC(Cc1c[nH]c2ccccc12)C(=O)N/N=C/c1cccc2ccccc12)c1cccs1 (stereo not given)	5.0%	-23.2	0.7	0.2	5.0
C/C(=C\c1ccco1)CN1CCN(Cc2ccc(C)o2)C(CCO)C1 (stereo not given)	1.2%	.	-2.1	-2.9	4.5
O=C(CC12CC3CC(C1)CC(CC(=O)NC1=NCCS1)(C3)C2)NC1=NCCS1	-7.0%	-3.2	-1.1	-4.2	.
C=CC(C)(C)c1[nH]cnc1/C=C1\NC(=O)C(C(C)C)NC1=O (stereo not given)	9.6%	.	-0.9	.	-2.9
Cc1ccc(-n2nnc3c(=O)n(CC(=O)NCc4ccco4)cnc32)cc1	-1.1%	-14.4	-2.1	-14.9	-4.8	Arbovirus inh repeat=-10.8
COc1ccc2c(c1)OC(O)(C(F)F)CC2=O (stereo not given)	-10.8%	-28.8	-0.1	6.8	-1.7
O=c1[nH]c(C2CCN(S(=O)(=O)c3ccc(S(=O)(=O)NC4CC4)cc3)CC2)nc2c1nnn2Cc1ccc(F)cc1	.	.	0.1	.	92.4
Cc1ccc(C2C3CN(C(C)C)CC=C3C(C#N)=C(N)C2(C#N)C#N)cc1 (stereo not given)	.	.	-74.3	3.2	-3.8
The list goes on:
SMILES	Mtb H37Rv	YopH PTP inh	RecA intein inh	Arbovirus inh	Mtb betalactam	others
CSc1sc(C)cc1C1C(C#N)=C(N)N(c2cccnc2)C2=C1C(=O)CCC2 (stereo not given)	1.3%	-53.4	-3.6	-8.1	8.7
Cc1ccc(S(=O)(=O)N2CCN(Cc3nc4ccccc4[nH]3)CC2)cc1C	-2.7%	-42.0	2.8	6.5	-3.1
COc1cc(C2SCC(=O)Nc3c2c(=O)[nH]n3C2CCCCCC2)cc(OC)c1OC (stereo not given)	-1.9%	-15.7	-1.1	1.4	?	Arbovirus inh repeat=-1.1
COc1cccc(-c2nc3ccc([N+](=O)[O-])cc3o2)c1	3.2%	.	10.6	4.5	2.2
Cc1cc2occ(CC(=O)N(CCC(C)C)c3c(N)n(Cc4ccccc4)c(=O)[nH]c3=O)c2cc1C	.	.	7.5	.	0.7
Cc1ccc(S(=O)(=O)NCCNC(=O)CN2CCCC2)cc1	-7.5%	-17.4	.	15.2	-13.5
CN(C(=S)Nc1ccc(SC(F)F)cc1)C(c1ccccc1)c1ccccc1	.	.	4.5	.	-0.7
COC(=O)Nc1ccc2c(c1)N(C(=O)CCN1CCN3CCCC3C1)c1ccccc1S2 (stereo not given)	-0.1%	29.7	3.5	4.3	5.7
COCC(C)NC(=O)c1ccc(Cl)c(Cl)c1 (stereo not given)	-4.4%	2.6	1.2	2.3	-12.7
O=S(=O)(NCc1cccnc1)c1ccc(Cl)s1	-0.3%	-10.5	.	0.8	65.7
N#Cc1cc(Nc2c(N)nc[nH]c2=O)c([N+](=O)[O-])cc1C#N	.	.	6.8	.	-7.9
Clc1nc(-c2cccnc2)nc2scc(-c3ccccc3)c12	8.2%	-20.4	2.3	3.4	65.5
CC(C)(C)C(=O)OCc1nc(-c2ccc3c(c2)OCCO3)cs1	.	.	7.8	.	0.1
CCCN1C2CCCC1CC(NC(=S)Nc1cc(C)ccc1C)C2 (stereo not given)	-3.0%	-25.3	-2.4	8.1	9.8
Cc1cc(C)cc(NC(=O)c2cccn2-c2ncc(C(F)(F)F)cc2Cl)c1	2.4%	-21.1	1.6	-14.8	-13.1
CC(C)Cn1c(N)c(C(=O)COC(=O)c2cc(C(F)(F)F)nc3c(C(F)(F)F)cccc23)c(=O)n(C)c1=O	.	-13.3	1.3	12.6	-3.2
COC(=O)c1onc(-c2c(C)cc(C)cc2C)c1C(=O)OC	-10.0%	-21.1	-0.4	9.8	35.6
COc1ccc2cc3cc(C(=O)Nc4cc(OC)c(OC)c(OC)c4)oc3nc2c1	-2.8%	-11.7	-20.9	2.0	2.8
COc1ccc(C(CCN(Cc2ccc(OC)c(OC)c2)C(C)=O)c2ccccc2)cc1 (stereo not given)	4.1%	-18.3	12.4	-8.4	2.9

Source: PubChem

Some of the compounds tested, so the mix of outcomes need not match the whole.
